HPGD inh – qHTS Assay for Inhibitors of HPGD (15-Hydroxyprostaglandin Dehydrogenase); 15-hydroxyprostaglandin dehydrogenase [NAD(+)] (Homo sapiens), P15428; purified HPGD, NADH fluorescence kinetic, PGE2 substrate; Potency, µM, without a hit: top-dose activity change, negative = inhibition, actives largely listed as inhibitors; hit rate 4.3% among 150,000; AID 894, 2007; active = well fitted inhibition curve with a large enough effect (not every such curve was filed as active); inconclusive = small, poorly fitted or top-dose-only effect, or another doubt; inactive = no such curve, though single readings can be large or run the other way;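 further: top concentration of the series not given in the record; plate controls included wells without enzyme; inactives centre near -10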
Target sequence (P15428 whole entry, looked up): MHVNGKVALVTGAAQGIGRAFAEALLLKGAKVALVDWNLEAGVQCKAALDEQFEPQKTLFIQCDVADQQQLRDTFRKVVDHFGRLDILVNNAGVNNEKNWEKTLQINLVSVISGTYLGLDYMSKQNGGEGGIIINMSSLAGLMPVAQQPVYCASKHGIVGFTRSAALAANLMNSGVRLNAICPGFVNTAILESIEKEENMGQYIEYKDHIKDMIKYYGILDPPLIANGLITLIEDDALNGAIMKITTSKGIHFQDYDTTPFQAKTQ
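NADH formation kinetics: reaction with 30 uM PGE2 and 1 mM NAD+ (final), 20 nM enzyme, Tris-HCl pH 8 with Tween 20, after 15 min compound preincubation at room temperature. Fluorescence change, last versus first of five reads.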
Active calls of the source: *; ? = inconclusive. On the % scale 0 is the no-effect control and ±100 the full control effect; potency means the concentration at half of the fitted maximal effect.

SMILES	HPGD inh
Cc1ccccc1-n1nc2c(c1NC(=O)c1c(-c3ccccc3Cl)noc1C)CS(=O)(=O)C2	-1%
CCOC(=O)CSc1nc2ccc(N3CCOCC3)cc2c(=O)n1Cc1ccccc1	?
CCOC(=O)c1ccc(NS(=O)(=O)c2cc(C)ccc2OC)cc1	?
Cc1ccc(NC(=O)COc2nc(C)cs2)cc1	-9%
CCN=C(N)CSS(=O)(=O)O	-1%
COc1ccc(Oc2ncc3nc(C)c(=O)n(C)c3n2)cc1	-7%
CCc1cccc2c1NC(=O)[C@]21[C@@H]2C(=O)N(Cc3ccccc3)C(=O)[C@@H]2[C@@H]2CCCN21	-6%
CCOC(=O)CSc1nnc(NC(=O)c2cc([N+](=O)[O-])cc([N+](=O)[O-])c2)s1	?
O=C(CCCn1c(=S)[nH]c2cc3c(cc2c1=O)OCO3)N1CCc2ccccc2C1	?
NNC(=O)/C(=C\c1cccs1)NC(=O)c1ccccc1	-4%
O=C(NCCOC(=O)c1cccs1)c1cccnc1	-5%
COc1cccc([C@@H]2Oc3ccc(Br)cc3C[C@H]2OC(=O)Nc2ccc(OC(F)F)cc2)c1	-8%
CC1(C)CC(=O)C([N+](=O)[O-])=C(NCCCC(=O)O)C1	-19%
CC1=NN(S(=O)(=O)c2ccc(F)cc2)C(=O)c2ccccc2O1	-14%
O=c1c(-c2ccco2)[n+]([O-])c2ccccc2n1OCc1ccccn1	-19%
CCCCNCCOc1ccccc1-c1ccccc1	0%
CC(C)CC(=O)NCCNC(=O)c1cc(OCC(F)(F)F)ccc1OCC(F)(F)F	-12%
CC(C)OCCCNC(=O)CN1CCN(Cc2ccccc2Cl)C1=O	-10%
N#Cc1ccc(OC(=O)c2ccc(N=C(N)N)cc2)cc1	-3%
O=C(Nc1nc(-c2ccccc2)c(C(=O)c2ccccc2)s1)c1ccc(S(=O)(=O)N2CCCC2)cc1	-28%
OC1(c2ccc3c(c2)OCO3)CCN(Cc2ccccn2)CC1	-9%
CC(C)CN1CCC2(CC1)CCN(S(=O)(=O)c1ccccc1)CC2	-2%
CCC(C)NS(=O)(=O)c1ccc(OCC(=O)NCc2cccnc2)cc1 (stereo unspecified)	-13%
CCCC[C@@H]1C[C@H]1C(NC(=O)c1ccccc1)c1ccc(C(=O)OC)cc1 (stereo partly specified)	-13%
CC(=O)c1cc(CC=C(C)C)c(O)c(CC=C(C)C)c1O	-18%

Brought forward from above: 6 compounds, then new ones.
SMILES	HPGD inh
O=C(Nc1nc(-c2ccccc2)c(C(=O)c2ccccc2)s1)c1ccc(S(=O)(=O)N2CCCC2)cc1	-28%
OC1(c2ccc3c(c2)OCO3)CCN(Cc2ccccn2)CC1	-9%
CC(C)CN1CCC2(CC1)CCN(S(=O)(=O)c1ccccc1)CC2	-2%
CCC(C)NS(=O)(=O)c1ccc(OCC(=O)NCc2cccnc2)cc1 (stereo unspecified)	-13%
CCCC[C@@H]1C[C@H]1C(NC(=O)c1ccccc1)c1ccc(C(=O)OC)cc1 (stereo partly specified)	-13%
CC(=O)c1cc(CC=C(C)C)c(O)c(CC=C(C)C)c1O	-18%
Cc1nc2ccccc2n1CCC(=O)O	-5%
Cc1ccc(C(=O)Nc2ccccc2NC(=O)c2ccc(C)o2)o1	-5%
CCCCCCCC1=CC2=CC(=O)C(C)(OC(C)=O)C(=O)C2=CN1CCc1ccccc1 (stereo unspecified)	-7%
CCOC(=O)c1c(C)nc2sc(C(N)=O)c(N)c2c1-c1ccc(OC)cc1	-11%
CCC1=C2CC[C@H]3C(=O)N(C)C(=O)[C@H]3[C@H]2[C@@]2(Cc3ccccc3)C(=NCCc3c[nH]c4ccccc34)OC(=O)N2C1=O	-3%
O=C1Nc2cc(Cl)c(Cl)cc2N(O)N1c1ccccc1	-17%
CCn1cc([N+](=O)[O-])c(C(=O)N2N=C(c3ccc(OC)cc3OC)CC2c2ccccc2O)n1 (stereo unspecified)	-13%
Cc1ccc2cc(C#N)c(N3CCCN(S(=O)(=O)c4ccccc4)CC3)nc2c1	?
O=C(O)c1cc(S(=O)(=O)N2CCOCC2)c(Sc2ccccn2)cc1Sc1ccccn1	-7%
CC1CCN(c2nc3c(c(=O)[nH]c(=O)n3C)n2Cc2ccccc2)CC1	-9%
CC1(c2cc([N+](=O)[O-])cc([N+](=O)[O-])c2)CC(C)(C)N(C(=O)c2ccccc2)c2ccccc21 (stereo unspecified)	-12%
CC(=O)c1nn(-c2cccc(Br)c2)cc1C(=O)c1ccc(C)cc1	-6%
CCOc1ccc(C(C(=O)Nc2ccc(F)cc2)N(C(=O)Cn2nnc3ccccc32)C2CC2)cc1 (stereo unspecified)	-13%
O=[n+]1cc(-c2cccc3ccccc23)n([O-])c2c1CCC2	-15%
Cn1nnnc1SCC(=O)N1CCOCC1	-5%
CCOc1cc(/C=C\[N+](=O)[O-])ccc1OCC(=O)Nc1ccccc1C	-20%
O=C(CN1CC(c2ccccc2)CC1=O)OCc1cccc(Br)c1 (stereo unspecified)	-4%
CN(/N=C/C=C/c1ccccc1)C1=NS(=O)(=O)c2ccccc21	?
COc1ccc(CCNC(=O)COc2ccc(-c3ccccc3)cc2)cc1OC	-9%
COC(=O)[C@@]1(Cc2ccc(OC)cc2)[C@H]2c3cc(C(=O)N4CCCC4)n(CCN4CCNC4=O)c3C[C@H]2CN1C(=O)c1ccccc1	-8%
C=CCNC(=O)CN(c1ccc(OC)cc1OC)S(C)(=O)=O	-6%
CC(C)NC(=O)CSc1nc2ccccc2n1CC(=O)N1CCc2ccccc21	1%
Nc1ccnc(Oc2ccc(F)cc2)c1	-12%
N#Cc1ccccc1NC1=CC(=O)CCC1	-12%
CCOC(=O)CSc1nc2c([nH]c3ccccc32)c(=O)n1C	-11%

Among those listed so far, these have a furan ring, fused or not:
SMILES	HPGD inh
O=c1c(-c2ccco2)[n+]([O-])c2ccccc2n1OCc1ccccn1	-19%
Cc1ccc(C(=O)Nc2ccccc2NC(=O)c2ccc(C)o2)o1	-5%

Following part
SMILES	HPGD inh
Cn1c(Sc2ccc(C(F)(F)F)cc2[N+](=O)[O-])nnc1-c1ccccc1	-3%
CCC(=O)Nc1nc2ccc(S(C)(=O)=O)cc2s1	-13%
O=C(Nc1ccc(Nc2ccccc2)cc1)C(Cl)Cl	22µM*
c1ccc2c(c1)CCCN2Cc1nnc2n1CCCCC2	-20%
CN(C)c1ccc(C2C3C(=O)N(c4ccc(C(=O)O)cc4)C(=O)C3ON2c2ccccc2)cc1 (stereo unspecified)	1%
O=c1c2c(n3cnnc3n1-c1ccccc1)-c1ccccc1CC21CCCC1	-7%
c1ccc(NCn2cncn2)nc1	-8%
CCOc1ccc2nc(SCC(=O)NC3CCS(=O)(=O)C3)[nH]c2c1 (stereo unspecified)	-7%
O=C1c2ccccc2N[C@H](c2cc(Cl)cc(Cl)c2O)N1CCc1ccccn1	-10%
COc1ccc(C(=O)N2CCC3(CCN(CC(C)C)CC3)CC2)cc1	-3%
CC1=NN(C(=O)Cc2ccc(C)cc2)C(O)(c2cccnc2)C1 (stereo unspecified)	-11%
CCC(=O)Nc1ccc2c(c1)C(=O)N(C1CCCCC1)C2=O	?
O=C1Nc2ccccc2C1=Nc1cccc2ncccc12	-8%
CCc1cc(=O)oc2cc(C)c(CN3CCCCC3)c(O)c12	-8%
Cn1c(Cc2ccccc2)nnc1SCC(=O)Nc1ccc2c(c1)OCCO2	-5%
Cc1cccc(C)c1NC(=O)CSc1nnc(Cn2nnc(-c3ccccc3)n2)n1-c1ccccc1	-7%
CNC(=S)N/N=C(\C)c1cccc([N+](=O)[O-])c1	-19%
CCN(CC)S(=O)(=O)c1cc(NS(=O)(=O)c2c(Cl)cccc2Cl)ccc1C	8%
COc1ccc(CC(=O)NC(C)c2nnc(SCCOc3ccc(OC)cc3)n2C)cc1 (stereo unspecified)	-3%
O=C(c1cncc(Br)c1)N1CCCc2ccccc21	-11%
CCCC(=O)Nc1nc(C)c(-c2csc(Nc3ccc(Cl)cc3)n2)s1	-14%
COc1ccccc1N1CCN(C(=O)Cc2cccs2)CC1	-15%
C/C(=N/Oc1nc(C)cc(C)n1)c1ccc(Br)cc1	-2%
CC1=C(C)CC(C(=O)NNC(=O)c2cccc(Cl)c2)C(C(=O)O)C1 (stereo unspecified)	2%
O=C(CCSCCc1ccccn1)Nc1cc(F)ccc1F	-6%

(further entries)
SMILES	HPGD inh
COc1ccc(-n2c(C)cc(C(=O)Cn3nnc4ccccc4c3=O)c2C)cc1	-21%
CN(c1ccccc1)S(=O)(=O)c1cc(C(=O)Nc2nc3ccccc3[nH]2)ccc1Cl	?
CCN(CC)S(=O)(=O)c1ccc(NC(=O)c2cccc3c2C(=O)N(CCOC)C3)cc1	?
O=C(O)c1c[nH]c2c(C(F)(F)F)cccc2c1=O	-16%
COC/C=C/C1=CC2=CC(=O)C(C)(OC(=O)c3cnc4ccccc4n3)C(=O)C2=CO1 (stereo unspecified)	-8%
ONC(=Nc1ccc(Cl)cc1)c1ccccc1Cl	-12%
CCn1cc([N+](=O)[O-])c(C(=O)Nc2c(C)nn(Cc3cccc(F)c3)c2C)n1	-13%
COc1ccc(CCNC(=O)CN2CCC(C(N)=O)CC2)cc1	-5%
COc1ccc(NC(=O)c2cc(-c3cccnc3)nc3ccc(C)cc23)cc1OC	-25%
CCC(Sc1nc2ccccc2s1)C(=O)Nc1cc(C)on1 (stereo unspecified)	-12%
CCCCNC(=O)CCCCCn1c(=O)[nH]c2cc(OC)c(OC)cc2c1=O	?
Cc1cc(C(=O)Cn2cncn2)c(C)n1CCc1ccc(F)cc1	-3%
Cc1ccc(-c2ccc(CCC(=O)O)n2NC(=O)c2ccco2)cc1	-4%
COc1ccc(NC(=O)N2CC3(CCN(C(=O)c4cccc(F)c4)CC3)C2)cc1	-10%
O=C(N/N=C/c1ccc(N2CCOCC2)o1)c1cccc(F)c1	-19%
C=CCNC(=O)/C(C#N)=C/c1c(N2CC(C)OC(C)C2)nc2ccccn2c1=O (stereo unspecified)	?
COc1ccc2[nH]c(C)c(CCNC(=S)Nc3cccc(C)c3C)c2c1	-8%
COc1ccccc1-c1ccc(Nc2ccc(C(=O)N3CCOCC3)cc2)nn1	7.9µM*
CCOC(=O)N1CCC(N2C(=O)c3ccccc3C2=O)CC1	-3%
CC(NC(=O)CSc1nc2sc3c(c2c(=O)n1-c1ccccc1)CCCC3)c1ccccc1 (stereo unspecified)	-19%
O=C(CSc1nc2ccccc2[nH]1)NCCc1ccc(Cl)cc1	-1%
O=S1(=O)CCC(NC(=S)Nc2ccc(Cl)cc2)C1 (stereo unspecified)	-5%
N#CCC1c2ccccc2CCN1C(=O)Nc1ccc(C(F)(F)F)cc1 (stereo unspecified)	-10%
COCC(=O)Nc1cc(OC)c(Cl)cc1OC	1%
CCC1=C2CC[C@H]3C(=O)N(CC(=O)OC)C(=O)[C@H]3[C@H]2[C@@]2(Cc3ccccc3)C(=NCCc3c[nH]c4ccccc34)OC(=O)N2C1=O	-1%

Overlap with the part before: five compounds, followed by the next part.
SMILES	HPGD inh
O=C(CSc1nc2ccccc2[nH]1)NCCc1ccc(Cl)cc1	-1%
O=S1(=O)CCC(NC(=S)Nc2ccc(Cl)cc2)C1 (stereo unspecified)	-5%
N#CCC1c2ccccc2CCN1C(=O)Nc1ccc(C(F)(F)F)cc1 (stereo unspecified)	-10%
COCC(=O)Nc1cc(OC)c(Cl)cc1OC	1%
CCC1=C2CC[C@H]3C(=O)N(CC(=O)OC)C(=O)[C@H]3[C@H]2[C@@]2(Cc3ccccc3)C(=NCCc3c[nH]c4ccccc34)OC(=O)N2C1=O	-1%
CCOCCc1c(O)nc(SCC(=O)NCc2ccco2)[nH]c1=O	-13%
CC(C)C(=O)Nc1ccc(NC(=O)c2cccc(F)c2)cn1	-9%
O=c1c(C(c2ccccc2)c2c(O)nc3n(c2=O)CCCS3)c(O)nc2n1CCCS2	-20%
CC1CCCN(CCCOc2ccc(Cl)cc2Br)C1 (stereo unspecified)	4%
CCc1c(O)c2c(c(O)c1C(C)=O)C(=O)c1c(cc(O)c(C(=O)O)c1C(=O)O)C2=O	-12%
CC(=O)Nc1ccc(S(=O)(=O)Nc2nc(CN3CCOCC3)nc3sc4c(c23)CCCC4)cc1	-16%
COc1ccc(S(=O)(=O)N(C)C)cc1NCC(=O)Nc1ccc(F)cc1F	-2%
CCN1C(=O)/C(=C/c2cn(C)nc2C)SC1=S	-12%
Cc1ccc(S(=O)(=O)NC(C)(C)CSc2nnc(Nc3ccccc3)s2)cc1	-10%
O=C(NC1CCS(=O)(=O)C1)/C(=C\c1ccccc1)NC(=O)c1ccccc1 (stereo unspecified)	-3%
CCCC(=O)Nc1cccc(C(=O)Nc2nccs2)c1	-10%
c1csc(-c2nc3nc4ccccc4nc3n2Cc2ccc3c(c2)OCO3)c1	?
Brc1c(CSc2nc3ccccc3s2)nc2ncccn12	?
CN1CCN(CC(=O)Nc2sc3c(c2C#N)CCC(C(C)(C)C)C3)CC1 (stereo unspecified)	-10%
CCS(=O)(=O)NCC(c1ccco1)N1CCN(c2ccccc2F)CC1 (stereo unspecified)	2%
O=C(c1ccco1)N1CCN(C(c2ccccn2)c2nnnn2C2CCCC2)CC1 (stereo unspecified)	-6%
Cn1c(=O)oc2cc(S(=O)(=O)NCCC(=O)NC3CCCc4ccccc43)ccc21 (stereo unspecified)	-13%
Cc1ccc(OCCC(=O)OCC(=O)Nc2ccc(Cl)cn2)cc1	-7%
CCc1ccccc1NC(=O)N[C@H](C(=O)O)C(C)C	-10%
CCn1c(Cc2ccccc2)nnc1SCC(=O)Nc1nc(C)c(C)s1	-10%
CCOC(=O)C1=C(c2ccccc2)N=c2s/c(=C\c3cccc(O)c3)c(=O)n2C1c1cccs1 (stereo unspecified)	-9%
COc1ccc(-c2noc(-c3ccccc3C(=O)Nc3cccnc3)n2)cc1	-18%
CCOC(=O)c1cc2c(=O)n3ccccc3nc2n(CC(C)C)c1=NC(=O)c1c(-c2c(F)cccc2Cl)noc1C	?

Screening data: PubChem, National Center for Advancing Translational Sciences (NCATS)

Not all compounds are listed. The share of hits here may be higher or lower than overall.
